Screening data (PubChem BioAssay)
VACV mCherry inh – qHTS for Stage-Specific Inhibitors of Vaccinia Orthopoxvirus: mCherry Reporter Primary qHTS; Vaccinia virus mCherry reporter infection, fluorescence; about a quarter of the inactives have no number; Potency, µM (highest dose often 36.5 µM), for the others: top-dose activity change, negative = inhibition, usual class: inhibitors; 310,000 tested, 0.63% active; active = well fitted inhibition curve with a large enough effect; inconclusive = small, poorly fitted or top-dose-only effect; inactive = no such curve, though single readings can be large or run the other way; tested in A549 cells; also: nearly all actives have a fitted effect of over 35% in size; inactives centre near -10
VACV Venus inh – qHTS for Stage-Specific Inhibitors of Vaccinia Orthopoxvirus: Venus Reporter Primary qHTS. Vaccinia virus Venus reporter expression, fluorescence. Potency, µM (titrated, usually from 36.5 µM), without a hit: at the top dose activity change, negative = inhibition, actives largely listed as inhibitors. 330,000 tested, 0.46% active; active means well fitted inhibition curve with a large enough effect; inconclusive means small, poorly fitted or top-dose-only effect; inactive means no such curve, though single readings can be large or run the other way; tested in A549 cells; also: nearly all actives have a fitted effect of over 30% in size; inactives centre near -10
Active calls of the source: *; i = inactive; ? = inconclusive; . = no result given; & = joins results of further samples; [ ] = dose if it differs, or a comment. % is scaled to controls: 0 for no effect and ±100 for the full control effect; potency is read from the fitted curve at half-maximal effect. Not a hit list; overall some 0.82% were active at least once.

Preview (three entries):
SMILES	VACV mCherry inh	VACV Venus inh
CCCC(=O)Nc1nnc(SCC(=O)NC2CC2)s1	i	-7%
COc1ccc(C)cc1NC(=O)Nc1ccccc1OCc1cc(=O)n2ccccc2n1	i	-14%
Cc1noc(C)c1S(=O)(=O)N(CC(=O)Nc1ccc(C(F)(F)F)cc1)c1ccc(C(C)C)cc1	i	-14%

The whole of this part, from the first entry:
SMILES	VACV mCherry inh	VACV Venus inh
CCCC(=O)Nc1nnc(SCC(=O)NC2CC2)s1	i	-7%
COc1ccc(C)cc1NC(=O)Nc1ccccc1OCc1cc(=O)n2ccccc2n1	i	-14%
Cc1noc(C)c1S(=O)(=O)N(CC(=O)Nc1ccc(C(F)(F)F)cc1)c1ccc(C(C)C)cc1	i	-14%
COc1cc2nc3n(c(=O)c2cc1OC)-c1cc2ccccc2cc1C(=O)NC3CC(C)C (centres undefined)	i	?
CCC(C)c1ccc(NC(=S)NN2CCOCC2)cc1 (centres undefined)	i	-2%
CSc1nc(C)cc(OCC(=O)N/N=C/c2ccccc2O)n1	11µM*	?
CC(C)(C)C1CCC(NC(=O)c2cnn3c2NC(=C2CC2)C=C3C(F)F)CC1 (centres undefined)	?	-29%
Cc1oc(-c2ccc(Cl)cc2)nc1CN1CCC(C(=O)NCCCN2CCN(c3cccc(Cl)c3)CC2)CC1	?	14µM*
CCCN(CCC)c1nc(C#N)nc(N(CCC)CCC)n1	20%&-11%	-11%&-9%
O=C(NCCCN1CCOCC1)C(=O)NCC1OCCN1S(=O)(=O)c1ccc(Cl)cc1 (centres undefined)	i	-8%
Cc1cc(NC(=O)CN2C(=O)/C(=C/c3ccccc3F)SC2=S)no1	29%	19%
CC(=O)Nc1ccc(NC(=O)C(Cc2ccccc2)NC(=O)C2CCCCC2)cc1 (centres undefined)	i	-5%
CCCC(=O)N(c1ccc(F)cc1)C1C=CS(=O)(=O)C1 (centres undefined)	-11%	-1%
Cc1ccc([C@H]2N[C@]3(CCCN(Cc4ccc(Br)cc4)C3=O)[C@H]3C(=O)N(Cc4ccccc4)C(=O)[C@@H]23)cc1	?	?
Cc1ccccc1-c1nn(-c2ccc(F)cc2F)cc1CNCCCO	2%	2%
COc1ccc(S(=O)(=O)N2CCOCC2)cc1NC(=O)C1CC1	-16%	5%
CCOC(=O)CN(Cc1sccc1C)C(=O)Nc1ccc(OCC)cc1	-2%	-11%
C#CCSc1nnnn1-c1ccc(Br)c(C)c1	i	-13%
N#Cc1ccc(C(=O)OCC(=O)Nc2ccc(S(N)(=O)=O)cc2)cc1	-1%	-4%
Cc1ccc(S(=O)(=O)Nc2ccc(-c3csc(-c4ccccc4)n3)cc2)cc1	?	-30%
C[C@H]1CN([C@@H](C)CO)C(=O)CCCn2cc(nn2)CO[C@@H]1CN(C)C(=O)Nc1cccc(Oc2ccccn2)c1	i	2%
O=C(NCCC1=CCCCC1)c1cnsn1	-18%	-11%
COc1ccc(CCN2C(=NC(=O)C(C)C)SC3CS(=O)(=O)CC32)cc1OC (centres undefined)	-2%	0%
Cc1ccc(S(=O)(=O)NCCC(=O)Nc2nnc(C)s2)cc1	4%	0%
CCc1ccc(C(=O)COC(=O)c2cncc(Br)c2)cc1	-1%	-9%

More compounds.
SMILES	VACV mCherry inh	VACV Venus inh
CC(C)CN(C(=O)COC(=O)CCc1c[nH]c2ccccc12)c1c(N)n(Cc2ccccc2)c(=O)[nH]c1=O	i	-3%
CCOc1ccccc1NC(=O)Cn1nnc(C(=O)NCc2ccc(F)cc2)c1N	-2%	7%
CCOC(=O)c1c(C)[nH]c(C(=O)OC/C(O)=C(\C#N)c2nc3ccccc3[nH]2)c1C	-29%	-26%
CCCNC(=O)COCc1cc(-c2ccc(F)cc2)on1	-10%	-19%
CCCn1c(=N)c(C(=O)NC2CCCCC2)cc2c(=O)n3cc(C)ccc3nc21	13%	-2%
CCOc1cc(C2C(C(=O)OC)=C(C)NC3=C2C(=O)c2ccccc23)ccc1O (centres undefined)	-13%	-5%
COCCn1c(SCC(=O)Nc2ccc(NC(C)=O)cc2)nc2c([nH]c3ccccc32)c1=O	-7%	-9%
O=C(O)c1ccccc1C(=O)NNc1ccc(F)cc1F	-8%	-16%
Cc1ccc(S(=O)(=O)N2Cc3ccccc3CC2C(N)=O)cc1 (centres undefined)	-5%	-8%
O=C(Nc1ccc(-c2nc3ccccc3[nH]2)cc1)C1CCCO1 (centres undefined)	-6%	-7%
CCCCn1c(N)c(N(CCOC)C(=O)c2ccc(-c3ccc(C(C)=O)cc3)o2)c(=O)[nH]c1=O	-14%	-5%
Cc1ccccc1NC(=O)CCS(=O)(=O)c1cc(Br)cc2c1N(C(=O)C1CC1)CC2	-12%	-4%
C=CC[C@H](CC(=O)NCCO)C(=O)N[C@H](COC(=O)[C@H](CC=C)CC(=O)OC(C)(C)C)Cc1c[nH]c2ccccc12	i	?
Cc1ccc2nc(-c3ccccn3)cc(C(=O)Nc3ccc4c(c3)OCO4)c2c1	0%	3%
COC(=O)c1cc2sc(Cl)cc2n1CC(=O)Nc1cccc(SC)c1	-4%	-9%
Cc1ccc(C)c(C(=O)c2ccccc2NC(=O)c2ccccn2)c1	0%	-17%
O=C1SCCC1NC(=O)C(c1ccccc1)c1ccccc1 (centres undefined)	?	-6%
N=C(N)SCCc1cccc(CCSC(=N)N)c1	-15%&-18%	-16%&-13%
CCC(C)NC(=O)c1ccc2nc(Cc3ccccc3)oc2c1 (centres undefined)	-13%	-9%
O=c1[nH]c(CN2CCN(S(=O)(=O)c3ccccc3C(F)(F)F)CC2)nc2sc3c(c12)CCCC3	-14%	-10%
CCc1nnc(NC(=O)c2cc(C)nc3ccccc23)s1	-2%	0%
CCc1nc2c(OCc3ccccc3C)cccn2c1N(C)C(=O)CC(C)C	0%	3%
O=C(CN1C(=O)c2ccccc2S1(=O)=O)c1ccccc1	.	-12%
CCCn1c(/N=C/c2ccccc2O)nc2ccccc21	-20%	-21%
Cc1ccc(NC(=O)CCCCCN2C(=O)c3ccccc3C2=O)nc1	i	-13%

A run of entries from further up:
SMILES	VACV mCherry inh	VACV Venus inh
Cc1ccc2nc(-c3ccccn3)cc(C(=O)Nc3ccc4c(c3)OCO4)c2c1	0%	3%
COC(=O)c1cc2sc(Cl)cc2n1CC(=O)Nc1cccc(SC)c1	-4%	-9%
Cc1ccc(C)c(C(=O)c2ccccc2NC(=O)c2ccccn2)c1	0%	-17%
O=C1SCCC1NC(=O)C(c1ccccc1)c1ccccc1 (centres undefined)	?	-6%

Next section
SMILES	VACV mCherry inh	VACV Venus inh
CC1CCN(c2c(NCc3ccc(C(=O)N4CCN(C5CCCCC5)CC4)cc3)c(=O)c2=O)CC1	-11%	-20%
C=C1CCN([C@H](C(=O)OCc2ccc(C)cc2)C(C)C)S(=O)(=O)c2ccccc21	-5%	-14%
Cn1c(SCC(=O)N2CCCc3ccccc32)nc2ccccc2c1=O	.	?
Cc1ccccc1-c1nn2c(=O)cc(CN3CCN(C(=O)c4ccc(C(C)(C)C)cc4)CC3)nc2s1	-1%	-28%
NCCCCCc1nnc(SCC(N)=O)o1	i	-13%
COc1cc(/C=N/n2cnnc2)ccc1Oc1nc(Cl)ncc1F	-3%	-15%
O=C(NCc1ccc2c(c1)OCO2)C12CN(Cc3ccccc3)CC1C(c1cccc([N+](=O)[O-])c1)=NO2 (centres undefined)	?	-22%
CCCCN(C(=O)C1CSC2(C)CCC(=O)N12)c1c(N)n(Cc2ccccc2)c(=O)[nH]c1=O (centres undefined)	-16%	-25%
Cc1cc(C)nc(NC(=S)Nc2ccc(F)cc2F)c1	1%	-4%
Cc1ccc2c(CN3CCC(C(N)=O)CC3)cc(=O)oc2c1C	-13%	4%
CC1(C)CC(=O)C/C(=N\NC(=O)C2CC23CCC3)C1 (centres undefined)	-15%	-8%
O=S(=O)(Nc1ccc(Cl)cc1)c1ccc(N2CCOCC2)c(NC(=S)NCCN2CCOCC2)c1	-8%	-12%
O=C(c1ccco1)N1CCN(C(=O)c2ccc(Cn3cc(Br)cn3)o2)CC1	-11%[1.46 µM]	-19%
O=C(Nc1cccc(S(=O)(=O)N2CCCC2)c1)c1cccnc1	12%	1%
CNS(=O)(=O)c1cccc(C(=O)OC2CCOC2=O)c1 (centres undefined)	10%	4%
CN(C)CCC(O)c1ccccc1 (centres undefined)	0%[7.34 µM]	0%[7.34 µM]
O=C(Nc1ccon1)c1cccn(Cc2cccc(Cl)c2)c1=O	-3%[7.34 µM]	-3%[7.34 µM]
Cc1ccc(OCc2nnc(SCC(=O)Nc3sc(C)c(C)c3C#N)n2C)cc1	?	-24%
COc1ccc(C2=NN(C(=O)COC(=O)c3ccc(S(C)(=O)=O)c([N+](=O)[O-])c3)C(c3ccco3)C2)cc1 (centres undefined)	11µM*	?
O=C(NCc1cccs1)C1CC(=O)N(Cc2ccccc2)C1 (centres undefined)	i	-19%
COc1cc(Nc2nc(-c3ccc(OC)c(OC)c3)nc3ccccc23)cc(OC)c1	-5%[7.34 µM]	4%[7.34 µM]
O=C(COc1ccc2c(-c3ccccc3)cc(=O)oc2c1)NCC(O)c1ccccc1 (centres undefined)	-14%	-9%
CCOc1ccc(NC(=O)c2cc3c(-c4ccccc4F)nn(C)c3s2)cc1	-13%	-3%
CC1=C(C(=O)OCc2ccccc2)C(c2ccc3c(c2)OCO3)NC(=O)N1CCCC(=O)O (centres undefined)	i	-2%
COc1ccc(-c2ccc(CN3C(C(C)C)C(=O)N(Cc4cn(CC5CCCCC5)nn4)CCS3(=O)=O)cc2)cc1OC (centres undefined)	-15%	?

Profiles as entered above. Order of screens: VACV mCherry inh | VACV Venus inh
O=C(Nc1cccc(S(=O)(=O)N2CCCC2)c1)c1cccnc1 in the list: 12% | 1%
O=C(Nc1ccon1)c1cccn(Cc2cccc(Cl)c2)c1=O in the list: -3%[7.34 µM] | -3%[7.34 µM]
CC1(C)CC(=O)C/C(=N\NC(=O)C2CC23CCC3)C1 (centres undefined) in the list: -15% | -8%
O=C(NCc1cccs1)C1CC(=O)N(Cc2ccccc2)C1 (centres undefined) in the list: i | -19%
Cc1cc(C)nc(NC(=S)Nc2ccc(F)cc2F)c1 in the list: 1% | -4%

(more compounds)
SMILES	VACV mCherry inh	VACV Venus inh
COc1ccc(CCc2ccc3cc(OC)ccc3n2)cc1	?	-20%
CCc1ccc(N(CC)c2ncnc3nc[nH]c23)cc1	i	-28%
CCN1CC(CNCc2cn(-c3ccc(OC)cc3)nc2-c2ccccc2Cl)CC1=O (centres undefined)	-28%	-19%
Fc1cccc(NC(=S)NCC(c2cccnc2)N2CCOCC2)c1 (centres undefined)	-9%	-21%
CCCn1cnc2c(SCc3ccccc3)nc(N)nc21	-8%	-2%
CC(C)c1ccc(CC(=O)N2CCC2(C)C(=O)NCCC#N)cc1 (centres undefined)	2%	2%
Cc1ccc(NC(=O)CCc2nc3ccccc3c(=O)[nH]2)cc1S(=O)(=O)N1CCOCC1	-4%	-9%
CN(C)c1nc(SCc2ccc(Cl)cc2)nc2c1CCCC2	.	-20%
COc1cccc(/C=N/Nc2c(Cl)cncc2Cl)c1O	?	?
COc1ccc2nc(NC(=O)CSCC(=O)Nc3cc(C)on3)sc2c1	-9%	-14%
O=c1cc(CN2CCCCC2)c2ccccc2o1	34%[activator]	5%
COc1ccc2c(c1)CC1(CN2C)C(=O)NC(=O)N(c2ccc(C)cc2)C1=O (centres undefined)	.	29%
Cc1ccc2[nH]cc(C(c3ccccc3)c3cccs3)c2c1 (centres undefined)	-3%[7.34 µM]	-6%[7.34 µM]
c1ccc(Nc2nc(-c3ccncc3)cs2)cc1	.	-28%
Cc1cccc(-n2c3nc(=O)[nH]c(=O)c-3cc3c(C)nn(-c4ccccc4)c32)c1C	-9%	-7%&-4%
CC(=O)NC(C)c1nc2ccccc2n1CC(=O)NC(C)CCc1ccccc1 (centres undefined)	i	-9%
CCn1c(C)nc2cc(C(=O)NNC(=O)[C@@H](NC(=O)c3cc(OC)cc(OC)c3)C(C)C)ccc21	i	-16%
CCn1c(=O)n(-c2ccc3c(c2)OCO3)c2nc(-c3cc(OC)ccc3OC)nc(C(N)=O)c21	-27%	-13%
CC(=O)N1CCC2(CC1)NC(=O)N(c1ccccc1)N2	-17%	-16%
CCOc1cc(C(=O)CCC(=O)OCC(=O)NC(=O)NCC(C)C)ccc1O	i	2%
CCCCOc1ccc(C(=O)N2CCCCC2CCN2CCOCC2)cc1 (centres undefined)	-12%	-5%
Cc1ccc(-n2c(N)cc(=O)nc2SCC(=O)NC2CCCCC2)cc1C	i	-8%
S=C(NCc1ccccc1)Nc1cccc2cnccc12	-17%	-16%
Cc1nnsc1C(=O)Oc1ccccc1Cl	-14%	-5%
S=c1nc[nH]c2c1sc1nc(N3CCOCC3)c3c(c12)CCCC3	-27%	-15%

Continuation:
SMILES	VACV mCherry inh	VACV Venus inh
CN(CCOc1ccccc1)CCOc1ccccc1	-9%	10%
CCCOC(=O)Cn1c(=O)c2cc3c(=O)n(CC(=O)OCCC)c(=O)c3cc2c1=O	-23%	-4%
Cc1ccccc1OCC(O)CN (centres undefined)	-6%	-28%
O=C(NCCCN1CCCC1)c1ccc(CS(=O)(=O)c2c(Cl)cccc2Cl)o1	-12%	-6%
CCCCn1nc(C(=O)NC2CCCCC2)c2ccccc2c1=O	-14%	-14%
CCOC(=O)c1sc(NC(=O)CSC(=S)N2CCOCC2)nc1C	-9%	-12%
Cc1cn(-c2cc(C(=O)Nc3ccc(C)c(NC(=O)N4CCNC4=O)c3)cc(C(F)(F)F)c2)cn1	i	-3%&-3%
CCOc1ccc(C(=O)NCC(c2cccs2)N(C)C)cc1 (centres undefined)	i	-5%
